Yeast UUG start = alters start codon recognition fidelity in yeast; S. cerevisiae UUG-firefly luciferase reporter, luminescence/redox ratio; activity score, % at 18.7 µM; actives 0.13% (n = 350,000);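 active = replicate mean at a twofold rise or more, about +100% in these data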;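 also: firefly luciferase made from a UUG start codon reports start codon fidelity; reporter light over untreated wells divided by growth signal over untreated wells; some hits fall short of that in this replicate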
Numbers without * were called inactive. A portion of the library, so the mix of outcomes need not match the whole.

SMILES	Yeast UUG start
COc1ccc(NC(=O)N(C)C[C@@H]2Oc3ccc(NS(=O)(=O)c4c(C)noc4C)cc3C(=O)N([C@H](C)CO)C[C@@H]2C)cc1	8
CO[C@H]1CN(C)C(=O)c2cc(NC(=O)Nc3ccc(F)cc3)ccc2OC[C@@H](C)NC[C@H]1C	-3
CO[C@@H]1CN(C)C(=O)c2cc(NS(=O)(=O)c3ccccc3C)ccc2OC[C@H](C)NC[C@@H]1C	-11
CO[C@H]1CN(C)C(=O)c2ccc(NC(=O)c3ccccc3F)cc2OC[C@@H](C)N(C(C)=O)C[C@@H]1C	-3
COc1ccc(-c2ccc3c(c2)[C@H]2[C@H](CCN2C(=O)NC2CCCCC2)[C@H](CO)N3C)cc1	-7
COc1cccc(-c2ccc([C@@H]3[C@H]4CN(CC5CCOCC5)CCCCN4[C@H]3CO)cc2)c1	-9
CO[C@H]1CN(C)C(=O)c2ccc(NC(=O)c3cc(C)on3)cc2OC[C@H](C)N(C(=O)C2CC2)C[C@H]1C	-15
CC(C)NC(=O)Nc1cccc2c1O[C@H](CN(C)C(=O)Nc1ccc(F)cc1)[C@@H](C)CN([C@@H](C)CO)C2=O	-8
CCCNC(=O)Nc1ccc2c(c1)OC[C@H](C)N(C(=O)c1ccccc1F)C[C@H](C)[C@H](OC)CN(C)C2=O	3
CCC(=O)Nc1ccc2c(c1)C(=O)N(C)C[C@H](OC)[C@H](C)CN(CC1CC1)[C@@H](C)CO2	-12
O=C([C@H]1[C@H](CO)[C@H]2Cn3c(ccc(C4=CCCC4)c3=O)[C@@H]1N2Cc1nccs1)N1CCCCC1	1
COc1cccc(-c2ccc3c(c2)[C@H]2[C@H](CCN2C(=O)c2ccc(F)cc2)[C@H](CO)N3)c1	-16
Cc1ccc(S(=O)(=O)Nc2ccc3c(c2)C(=O)N([C@H](C)CO)C[C@H](C)[C@H](CN(C)Cc2ccc4c(c2)OCO4)O3)cc1	-7
O=C(NC[C@H]1[C@H](c2ccccc2)[C@H](CO)N1CC1CCCC1)c1ccccc1	7
Cc1cccc(S(=O)(=O)N2C[C@H]3[C@@H](c4ccccc42)[C@@H](CO)N3Cc2cccnc2)c1	-1
C[C@@H]1CN([C@H](C)CO)C(=O)c2cccc(NC(=O)C3CCCCC3)c2O[C@H]1CN(C)Cc1ccc(C(F)(F)F)cc1	-8
Cn1cnc(S(=O)(=O)N2CCCCN3[C@@H](CO)[C@@H](c4ccc(C#CC5CCCC5)cc4)[C@@H]3C2)c1	49
CO[C@H]1CN(C)C(=O)c2ccc(NC(C)=O)cc2OC[C@@H](C)N(CCC(F)(F)F)C[C@@H]1C	-3
CCC(=O)N1CC[C@H]2[C@H](CO)Nc3ccc(-c4cccc(C#N)c4)cc3[C@H]21	17
C[C@@H]1CN([C@H](C)CO)C(=O)c2cc(NS(C)(=O)=O)ccc2O[C@@H]1CN(C)S(=O)(=O)c1cn(C)cn1	-17
O=C(Nc1cccc(F)c1)N1CCCCN2[C@@H](CO)[C@@H](c3ccc(C#CC4CC4)cc3)[C@@H]2C1	11
COc1cccc(C(=O)Nc2ccc3c(c2)OC[C@@H](C)N(C(=O)C2CC2)C[C@@H](C)[C@H](OC)CN(C)C3=O)c1	8
COc1ccc(-c2ccc([C@H]3[C@H](CO)N4CCCCN(CC5CCOCC5)C[C@@H]34)cc2)cc1	-1
Cc1cccc(-c2ccc([C@H]3[C@H](CO)N4CCCCN(Cc5cccnc5)C[C@@H]34)cc2)c1	-9
C[C@@H]1CN([C@H](C)CO)C(=O)c2cccc(NC(=O)c3cnccn3)c2O[C@@H]1CN(C)Cc1ccc(C(=O)Nc2ccccc2N)cc1	1

Next records follow:
SMILES	Yeast UUG start
C[C@@H]1CN([C@@H](C)CO)C(=O)c2cc(NS(C)(=O)=O)ccc2O[C@H]1CN(C)Cc1ccc(-c2ccccc2)cc1	12
Cc1noc(C)c1NC(=O)N(C)C[C@@H]1Oc2ccc(NC(=O)Cn3cnnn3)cc2C(=O)N([C@@H](C)CO)C[C@@H]1C	-6
CCCNC(=O)C[C@H]1C[C@H]2c3cc(NC(=O)Nc4ccc(OC)cc4)ccc3O[C@H]2[C@H](CO)O1	-4
CC(C)NC(=O)N(C)C[C@@H]1Oc2c(NS(=O)(=O)c3ccc(F)cc3)cccc2C(=O)N([C@@H](C)CO)C[C@H]1C	-2
C[C@H](CO)N1C[C@H](C)[C@H](CN(C)C)Oc2c(NC(=O)c3ccncc3)cccc2C1=O	-12
O=C(C1CC1)N1CCCCN2[C@H](C1)[C@H](c1ccc(-c3cccc(F)c3)cc1)[C@@H]2CO	5
COCC(=O)N(C)C[C@H]1[C@H](c2ccccc2)[C@@H](CO)N1C(=O)Cc1cccnc1	-3
O=C(C[C@@H]1CC[C@@H]2[C@H](COC[C@H](O)CN2C(=O)Cc2ccccc2)O1)NC1CCC1	-16
CCCNC(=O)N1C[C@@H]2[C@H](c3ccccc31)[C@@H](CO)N2C(=O)c1ccccc1	12
O=C(NCc1ccccc1)[C@@H]1[C@@H](CO)[C@@H]2Cn3c(cccc3=O)[C@H]1N2C(=O)Cc1ccccn1	-10
CO[C@@H]1CN(C)C(=O)c2ccc(NS(C)(=O)=O)cc2OC[C@@H](C)N(Cc2cccnc2)C[C@H]1C	-9
CN1c2ccc(-c3ccc(F)cc3)cc2[C@H]2[C@H](CCN2C(=O)Cc2ccccn2)[C@H]1CO	11
Cc1cccc(-c2ccc([C@H]3[C@H]4CN(CCC(F)(F)F)CCCCN4[C@H]3CO)cc2)c1	-13
C[C@H]1CN([C@@H](C)CO)C(=O)Cc2cc(NS(=O)(=O)c3ccc(Cl)cc3)ccc2O[C@H]1CN(C)C(=O)NC1CCCCC1	-2
C[C@H](CO)N1C[C@H](C)[C@@H](CN(C)C(=O)Nc2cccc3ccccc23)Oc2ccc(NC(=O)Nc3ccc(F)cc3)cc2C1=O	-13
O=C(C1CC1)N1CC[C@@H]2[C@H]1c1cc(-c3cccc(F)c3)ccc1N[C@@H]2CO	-6
C[C@@H]1CN([C@@H](C)CO)C(=O)c2cc(NC(=O)CCCN(C)C)ccc2O[C@@H]1CN(C)Cc1ccc(-c2ccccc2)cc1	-5
CN1[C@@H]2Cn3c(ccc(C4=CCCCC4)c3=O)[C@H]1[C@@H](C(=O)N1CCCCC1)[C@@H]2CO	8
C[C@@H]1CN([C@@H](C)CO)C(=O)c2cccc(NC(=O)c3cnccn3)c2O[C@@H]1CN(C)Cc1ccc(-c2ccccc2)cc1	10
CO[C@H]1CN(C)C(=O)c2ccc(NC(=O)C3CC3)cc2OC[C@@H](C)N(C(=O)c2cccnc2)C[C@@H]1C	30
COCC(=O)NC[C@@H]1[C@@H](c2ccc(C3=CCCC3)cc2)[C@@H](CO)N1C(=O)C1CC1	1
COc1ccc(S(=O)(=O)Nc2ccc3c(c2)[C@@H]2C[C@@H](CC(=O)O)O[C@@H](CO)[C@@H]2O3)cc1	-4
COCC(=O)Nc1ccc2c(c1)OC[C@@H](C)N(Cc1ccccc1F)C[C@H](C)[C@H](OC)CN(C)C2=O	-4
COc1ccc(NC(=O)N2CCCCN3[C@@H](CO)[C@H](c4ccc(-c5ccccc5C)cc4)[C@@H]3C2)cc1	-3
O=C(c1ccccc1)N1C[C@H]2[C@@H](c3ccccc31)[C@@H](CO)N2Cc1ccccc1F	-1

(more compounds)
SMILES	Yeast UUG start
C[C@H]1CN([C@@H](C)CO)C(=O)c2cccc(NC(=O)c3nc4ccccc4s3)c2O[C@H]1CN(C)S(=O)(=O)c1cn(C)cn1	4
COCCNC(=O)C[C@@H]1CC[C@H]2[C@@H](COC[C@H](O)CN2S(=O)(=O)c2ccccc2C)O1	3
COCC(=O)Nc1ccc2c(c1)C(=O)N(C)C[C@H](OC)[C@H](C)CN(C(=O)c1cnccn1)[C@H](C)CO2	9
COc1ccc(CNC(=O)C[C@H]2C[C@H]3c4cc(NC(=O)NC5CCCC5)ccc4O[C@H]3[C@H](CO)O2)cc1	2
Cc1cccc(-c2ccc([C@H]3[C@@H](CO)N4CCCCN(C(=O)c5cccnc5)C[C@H]34)cc2)c1	-13
CN1C(=O)c2cc(NC(=O)C3CCCC3)ccc2OC[C@H]2O[C@@H](CC(=O)NCC(F)(F)F)CC[C@@H]21	-12
CC(C)(O)C#Cc1ccc([C@@H]2[C@@H](CO)N3CCCCN(C(=O)c4cccc(F)c4)C[C@H]23)cc1	7
C[C@H](CO)N1C[C@H](C)[C@@H](CN(C)CC2CCCCC2)Oc2ccc(NC(=O)Nc3ccc(C(F)(F)F)cc3)cc2C1=O	-3
CC(C)NC(=O)Nc1cccc2c1O[C@@H](CN(C)C(=O)NC(C)C)[C@@H](C)CN([C@@H](C)CO)C2=O	-15
C[C@@H]1CN([C@@H](C)CO)C(=O)c2cccc(NC(=O)c3ccc(-c4nccs4)cc3)c2O[C@H]1CN(C)C(=O)Nc1ccc2c(c1)OCO2	32
COc1ccc(CN(C)C[C@H]2Oc3ccc(NC(=O)NC(C)C)cc3CC(=O)N([C@H](C)CO)C[C@H]2C)cc1	22
COc1ccccc1CNC(=O)C[C@@H]1CC[C@@H]2[C@H](COc3ccc(NC(=O)Nc4ccc(F)c(F)c4)cc3C(=O)N2C)O1	-3
CCC(=O)Nc1ccc2c(c1)OC[C@@H](C)N(C(=O)C1CCC1)C[C@H](C)[C@H](OC)CN(C)C2=O	-1
C[C@@H]1CN([C@H](C)CO)C(=O)CCCn2cc(nn2)CO[C@@H]1CN(C)S(=O)(=O)c1cccs1	-8
C[C@@H]1CN([C@H](C)CO)C(=O)Cc2cc(NC(=O)Nc3ccccc3)ccc2O[C@@H]1CN(C)CC1CCCCC1	-6
CC(C)NC(=O)N(C)C[C@@H]1Oc2ccc(NS(=O)(=O)c3ccccc3)cc2C(=O)N([C@@H](C)CO)C[C@@H]1C	-7
O=C(c1ccc(F)cc1)N1CCCCN2[C@H](CO)[C@H](c3ccc(/C=C/c4ccccc4)cc3)[C@H]2C1	1
CO[C@H]1CN(C)C(=O)c2cc(NC(C)=O)ccc2OC[C@H](C)N(Cc2ccncc2)C[C@H]1C	-10
CN1c2ccc(-c3ccccc3F)cc2[C@H]2[C@H](CCN2C(=O)c2ccccn2)[C@@H]1CO	-16
Cc1cccc(-c2ccc([C@H]3[C@@H](CO)N4CCCCN(Cc5cncnc5)C[C@@H]34)cc2)c1	-7
CO[C@H]1CN(C)C(=O)c2cc(NC(=O)Nc3ccccc3)ccc2OC[C@@H](C)N(C(=O)Nc2c(C)noc2C)C[C@H]1C	12
C[C@@H]1CN([C@H](C)CO)C(=O)c2cc(NC(=O)CCCN(C)C)ccc2O[C@H]1CN(C)S(=O)(=O)c1ccc(F)cc1	-8
C[C@H](CO)N1C[C@H](C)[C@H](CN(C)Cc2ccc3c(c2)OCO3)Oc2ccc(NC(=O)Nc3ccccc3)cc2CC1=O	17
O=C(Nc1nccs1)[C@H]1[C@H](CO)[C@H]2Cn3c(ccc(-c4ccncc4)c3=O)[C@H]2N1CC1CCCC1	1
O=C(C[C@@H]1CC[C@@H]2[C@H](COC[C@H](O)CN2C(=O)Nc2cccc(Cl)c2)O1)NCC1CCCCC1	-1

More structures
SMILES	Yeast UUG start
O=C(C[C@H]1CC[C@H]2[C@@H](COC[C@@H](O)CN2Cc2ccccc2F)O1)N[C@H]1CCN(Cc2ccccc2)C1	6
C[C@@H]1CN([C@@H](C)CO)C(=O)c2cccc(NS(=O)(=O)c3cn(C)cn3)c2O[C@@H]1CN(C)S(=O)(=O)c1ccc(F)cc1	-26
COc1ccc(CN(C)C[C@H]2Oc3c(NC(=O)NC4CCCCC4)cccc3C(=O)N([C@H](C)CO)C[C@H]2C)cc1	-8
O=C(C[C@H]1CC[C@H]2[C@@H](COC[C@@H](O)CN2S(=O)(=O)c2cccc(Cl)c2)O1)N1CCOCC1	18
Cc1cccc(S(=O)(=O)N(C)C[C@@H]2OCc3ccccc3-c3ccccc3C(=O)N([C@H](C)CO)C[C@H]2C)c1	32
C[C@@H]1CN([C@@H](C)CO)C(=O)c2cc(NC(=O)CCN3CCOCC3)ccc2O[C@@H]1CN(C)C(=O)Nc1ccc2c(c1)OCO2	-6
O=C(Cc1ccccc1)N1CC[C@@H]2[C@H](CO)Nc3ccc(C4=CCCCC4)cc3[C@@H]21	-9
O=C(C[C@@H]1CC[C@H]2[C@@H](COC[C@@H](O)CN2C(=O)Cc2ccccc2)O1)NC1CCC1	10
CC(C)NC(=O)Nc1ccc2c(c1)CC(=O)N([C@@H](C)CO)C[C@H](C)[C@H](CN(C)Cc1ccc(Cl)c(Cl)c1)O2	0
CO[C@@H]1CN(C)C(=O)c2ccc(NC(=O)c3nc4ccccc4s3)cc2OC[C@@H](C)N(Cc2ccncc2)C[C@@H]1C	-1

Twelve entries from above, with bars between the fields.
SMILES | Yeast UUG start
C[C@H](CO)N1C[C@H](C)[C@H](CN(C)Cc2ccc3c(c2)OCO3)Oc2ccc(NC(=O)Nc3ccccc3)cc2CC1=O | 17
O=C(Nc1nccs1)[C@H]1[C@H](CO)[C@H]2Cn3c(ccc(-c4ccncc4)c3=O)[C@H]2N1CC1CCCC1 | 1
O=C(C[C@@H]1CC[C@@H]2[C@H](COC[C@H](O)CN2C(=O)Nc2cccc(Cl)c2)O1)NCC1CCCCC1 | -1
O=C(C[C@H]1CC[C@H]2[C@@H](COC[C@@H](O)CN2Cc2ccccc2F)O1)N[C@H]1CCN(Cc2ccccc2)C1 | 6
C[C@@H]1CN([C@@H](C)CO)C(=O)c2cccc(NS(=O)(=O)c3cn(C)cn3)c2O[C@@H]1CN(C)S(=O)(=O)c1ccc(F)cc1 | -26
COc1ccc(CN(C)C[C@H]2Oc3c(NC(=O)NC4CCCCC4)cccc3C(=O)N([C@H](C)CO)C[C@H]2C)cc1 | -8
O=C(C[C@H]1CC[C@H]2[C@@H](COC[C@@H](O)CN2S(=O)(=O)c2cccc(Cl)c2)O1)N1CCOCC1 | 18
Cc1cccc(S(=O)(=O)N(C)C[C@@H]2OCc3ccccc3-c3ccccc3C(=O)N([C@H](C)CO)C[C@H]2C)c1 | 32
C[C@@H]1CN([C@@H](C)CO)C(=O)c2cc(NC(=O)CCN3CCOCC3)ccc2O[C@@H]1CN(C)C(=O)Nc1ccc2c(c1)OCO2 | -6
O=C(Cc1ccccc1)N1CC[C@@H]2[C@H](CO)Nc3ccc(C4=CCCCC4)cc3[C@@H]21 | -9
O=C(C[C@@H]1CC[C@H]2[C@@H](COC[C@@H](O)CN2C(=O)Cc2ccccc2)O1)NC1CCC1 | 10
CC(C)NC(=O)Nc1ccc2c(c1)CC(=O)N([C@@H](C)CO)C[C@H](C)[C@H](CN(C)Cc1ccc(Cl)c(Cl)c1)O2 | 0
